Screening data as filed in PubChem.
Autofluor counter = counter-screen for toxin protease inhibitors: compound fluorescence | compound autofluorescence counterscreen, microsphere flow cytometry; hits give high values | fluorescence intensity (concentration not given with the values) | hit rate 3.1% among 360,000 | AID 624483;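 active = at least 3 SD above the mean of all compounds, about 16000 in these data; inconclusive = too few beads counted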;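 note: 100 nL of 1 mM stock went into each well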
BJeLR lethal = kills HRASV12-expressing BJeLR cells | inhibition, % (test concentration not listed) | hit rate 0.17% among 300,000 | BJeLR (HRASV12) viability, CellTiter-Glo ATP luminescence, 48 h; reference of the scale not given here;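 active = replicate mean above 50%; inconclusive = above 50% but judged a plate artefact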;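 note: 50 nL library stock added to about 25 µL; numbers are from one replicate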
PrP 5UTR inh = inhibition of PrP 5' UTR reporter expression; inhibition, % (no concentration beside the values); hit rate 0.35% among 340,000; AID 488862; cell-based PrP 5' UTR mRNA reporter, plate reader;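 active = every replicate at 50% or more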;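 note: 0 = median of the neutral control wells; tested in H4 reporter cells; numbers are from one replicate; inactives centre near -14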
Sa ugtP lethal = kills S. aureus RN4220 lacking UgtP; S. aureus RN4220 ugtP deletion, OD600 growth, 16 h; some inactives read as strong as hits; growth inhibition, % (test concentration not listed); hit rate 0.54% among 330,000; AID 1259309;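 active = z-score under -3 and OD600 up to 0.15 on both plates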;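 note: plate controls were untreated wells for no effect and antibiotic for full effect; wells of about 80 µL received 100 nL stock; the first replicate is given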
Mtb hypoxia inh = inhibitors of hypoxia-regulated fluorescent reporter in Mycobacterium tuberculosis | fluorescence inhibition, % (concentration not given with the values) | hit rate 0.1% among 300,000 | M. tuberculosis hypoxia-regulated fluorescent reporter, fluorescence;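 active = 35 to 45% if threefold the growth effect, above 45% if 1.5-fold the growth effect; inactive = the rest, general growth blockers included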;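 note: wells of about 50 µL received 100 nL stock; 0% = vehicle wells and 100% = reference inhibitor wells; whole bacteria with a GFP reporter of the hypoxia response; strong numbers were not always called active; many hits fall short of the cut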
RN4220 kill = S. aureus RN4220 growth inhibition. OD600, 16 h. inhibition, % (test concentration not listed). hit rate 0.33% among 330,000;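 active = z-score of -3 or lower and OD600 up to 0.18 on both plates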;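 note: plate controls were untreated cells for no effect and reference antibiotic for full effect; stock transfer was 100 nL into about 80 µL; one replicate is shown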
Mtb hypoxia inh growth = recorded beside Mtb hypoxia inh, whose call it bears; growth inhibition, %; measured here: M. tuberculosis growth (absorbance);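 0% = vehicle and 100% = reference antibiotic; read after six days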
* = called active by the depositor; ? = inconclusive; . = no result given.

SMILES | Autofluor counter | BJeLR lethal | PrP 5UTR inh | Sa ugtP lethal | Mtb hypoxia inh | Mtb hypoxia inh growth | RN4220 kill
CCCCCCCCCCS(=O)(=O)N/N=C/c1ccc([N+](=O)[O-])cc1 | 21737* | 4 | -6 | . | . | . | .
CC(C)C[C@H](N)c1nnc(SCC(=O)Nc2ccc(Br)cc2)o1 | 4277 | -4 | -5 | 2 | 0 | 1 | 12
Cc1ccc(S(=O)(=O)N2CCN(CC(=O)NN=Cc3ccccn3)CC2)cc1 | . | . | . | 9 | 3 | 3 | 2.8
Cc1ccc(C(=O)N2c3ccccc3NC(=O)C2C)cc1 (stereo not drawn) | 4342 | -1 | 0 | 3 | -4 | 11 | 7.9
Cc1nnc(Sc2cc(C(=O)NCc3ccco3)c3ccccc3n2)s1 | 3286 | 1 | -24 | -8 | 3 | 9 | 1.3
CC(=O)CN1C(=O)NC2(CCCc3ccccc32)C1=O (stereo not drawn) | 4086 | 8 | -25 | 1 | 5 | 6 | 1.6
CCN1CCN(C=Nc2nc3c(s2)CCCC3)CC1 | . | . | . | 1 | -1 | 6 | 5.8
CSc1ccc(C2=CC(=O)CC(c3ccc(F)cc3)C2)cc1 (stereo not drawn) | . | . | . | -1 | 9 | 11 | 2.2
O=C1OC(c2ccccc2)=N/C1=C\C=C\c1ccco1 | 3236 | -6 | -17 | 8 | 21 | 5 | 9.7
CCOc1nc(SC(C(C)=O)C(=O)Nc2ccccc2)nc(N(C)C)n1 (stereo not drawn) | 2835 | 1 | -22 | -1 | 17 | 5 | -8.9
O=S(=O)(NCC1CCCO1)c1ccccc1 (stereo not drawn) | 4123 | -2 | 4 | -1 | -4 | 12 | -2.4
CCN1C(=O)[C@@H]2[C@H](C1=O)[C@@H]1C(=O)Nc3ccccc3C(=O)N1[C@@H]2c1ccc(Br)cc1 | 4437 | -3 | -12 | . | . | . | .
COc1cc(-c2cc(C(=O)N(C)Cc3ccccc3)c3ccccc3n2)cc(OC)c1OC | 5458 | -9 | -22 | 12 | 8 | 1 | -1.6
Cc1nc2ncnn2c(Nc2ccc3c(c2)OCCO3)c1C | 14905 | -3 | -31 | 4 | 2 | 14 | -1.5
COc1ccccc1N1CCN(C2CCCN(C(=O)c3ccccn3)C2)CC1 (stereo not drawn) | 6388 | -3 | -10 | 8 | 12 | 2 | 3.8
Cn1c(=O)c2c(n(C)c1=O)=NC1(CCCCC1)ON=2 | 2799 | 1 | -19 | -9 | . | . | 2.8
COC(=O)COc1ccc(S(=O)(=O)N2CCc3ccccc3C2)cc1 | 9086 | 4 | -15 | -2 | -4 | -6 | 4.5
COc1ccccc1C(CC(=O)Nc1ccc(C)c(C)c1)c1ccc(OC(C)C)cc1 (stereo not drawn) | 2626 | 1 | -26 | 13 | 6 | 7 | 4.9
Cc1ccc(OCC(O)CN2CCN(Cc3ccc4c(c3)OCO4)CC2)cc1C (stereo not drawn) | 2190 | -6 | -9 | 7 | 2 | 2 | 2.5
Brc1cccc(OCCCCn2cncn2)c1 | 4167 | 4 | -16 | 0 | 9 | 1 | 2.3
O=C(NN=Cc1ccccn1)c1cccs1 | . | . | . | 15 | 2 | 9 | 2.1
COc1ccccc1-c1cc(C(=O)NC2CCN(C)CC2)c2ccc(Cl)c(C)c2n1 | 5387 | 5 | -19 | -10 | 13 | 22 | -18
O=C(O)/C=C/c1cn(-c2ccccc2)nc1-c1cccs1 | 4622 | -3 | -24 | 2 | 15 | 4 | 5.3
O=C1/C(=C/c2ccc3c(c2)OCO3)Oc2cc(OCC(=O)N3CCC[C@H]3C(=O)O)ccc21 | 5033 | -10 | -12 | 14 | . | . | 1.2
O=C(CCSCc1ccccc1F)NCc1cccs1 | 6347 | 12 | -9 | 5 | 8 | 2 | 0.8

Going on with the list:
SMILES | Autofluor counter | BJeLR lethal | PrP 5UTR inh | Sa ugtP lethal | Mtb hypoxia inh | Mtb hypoxia inh growth | RN4220 kill
Cc1ccc(S(=O)(=O)Nc2ccc3c(c2)OCCO3)cc1 | 4111 | 8 | -16 | 2 | 15 | 10 | 6.4
COc1ccc(NC2c3ccccc3C(=O)N2Cc2ccccc2Cl)cc1OC (stereo not drawn) | 3376 | -9 | -2 | 2 | 12 | 3 | -1.4
CN(Cc1nccs1)C(=O)C1CCC(=O)N(CCc2cccc(F)c2)C1 (stereo not drawn) | 4339 | 4 | -14 | 11 | 12 | 6 | -2.7
O=C(Nc1ccccc1NC(=O)c1ccco1)c1ccccc1 | 4394 | -3 | 3 | -5 | 9 | 4 | 0.8
CCN1CCN(C(=O)CCc2nnc(CCc3ccccc3OC)o2)[C@@H](C)C1=O | 5409 | 1 | -7 | 5 | 8 | 7 | 1.6
CCCCN(C)C1=Nc2cccc3cccc1c23 | 3802 | -3 | -1 | -1 | 5 | 4 | 2.7
O=C1CSC(=S)N1c1cccc(Cl)c1 | 3043 | 1 | -4 | -12 | -6 | -3 | -5.2
CSCCC(NC(=O)c1ccc(Cl)cc1Cl)C(=O)NCC(c1cccs1)N(C)C (stereo not drawn) | 3870 | . | -18 | 6 | 7 | 4 | 3.9
O=C(NC12CC3CC(CC(C3)C1)C2)c1cc([N+](=O)[O-])ccc1N1CCOCC1 | 2055 | 4 | -25 | -4 | 17 | 10 | 4.5
Cc1c(Cl)c([N+](=O)[O-])nn1CCCC(=O)N(Cc1ccccc1)Cc1ccccc1 | 2049 | -9 | -7 | -5 | 5 | -2 | 4.8
COc1nc(N(CC(N)=O)S(=O)(=O)c2ccccc2)nc(C)c1Cl | 3324 | -4 | -4 | -1 | 6 | 7 | 5.0
COC(=O)c1ccc(N2C(=O)CC(N3CCN(c4ccccc4)CC3)C2=O)cc1 (stereo not drawn) | 3376 | -3 | -16 | -3 | 4 | 10 | -17
Cc1cc(C)n2nc(SCCCC(=O)c3ccccc3)nc2n1 | 4503 | -4 | -19 | 3 | 11 | 1 | 3.9
COc1cccc(/C=C/c2onc(C)c2S(=O)(=O)N2CCC(C(=O)NC3CCCCCC3)CC2)c1 | 5895 | 5 | -8 | 2 | 3 | 1 | -3.2
O=C1NC(=O)C2(C=C(c3ccccc3)C(O)(c3ccccc3)C2)N1 (stereo not drawn) | 3864 | . | 1 | 3 | 9 | 8 | 1.4
Cc1onc(-c2ccccc2Cl)c1C(=O)Nc1ccccc1C(=O)NC(C)C | 4218 | 4 | -16 | -4 | 9 | 6 | 3.7
Cc1cccc(NS(=O)(=O)c2ccc(-c3cnc(C4CC4)o3)cc2)c1 | 5167 | -1 | 20 | -15 | 4 | 10 | 18
COc1cccc(CN2CCN(C(=O)CCc3nnc(C4CCCCC4)o3)CC2=O)c1 | 5962 | 5 | -25 | 4 | 11 | 2 | 5.5
Cc1ccc(S(=O)(=O)Cc2ccc([N+](=O)[O-])cc2)cc1 | 3645 | -4 | -15 | 6 | 13 | 11 | 7.9
CN(C)c1cc(-c2ccc(F)cc2)oc(=O)c1Cl | 4300 | -6 | -18 | 4 | 12 | 15 | 4.5
CCOc1cc(C2C3=C(CCCC3=O)Nc3nc(C(=O)OC)nn32)ccc1OC (stereo not drawn) | 22585* | -14 | -5 | 6 | -2 | -13 | -0.6
Cc1nn(C2CCS(=O)(=O)C2)c(Cl)c1/C=C/C(=O)OCC(=O)c1c[nH]c2ccccc12 (stereo not drawn) | 2032 | -2 | -7 | 7 | 14 | 4 | 0.5
CCN1C(=O)C2C(c3ccc(C)cc3)N3C(=O)N(c4ccc(OC)cc4)C(=O)[C@@]3(CC)C2C1=O (stereo partly drawn) | . | . | . | -1 | 4 | 2 | 2.5
Cc1ccc(C(=O)Nc2sc3c(c2C(=O)O)CCCC3)o1 | 5246 | -2 | -26 | -12 | 4 | 4 | 14
COc1cccc(/C=N/NC(=O)CC2C(=O)NN=C2C)c1OC (stereo not drawn) | 3409 | 5 | 5 | . | . | . | .

Reformatted with values under each structure: 2 of the compounds above.
Each structure is followed by: Autofluor counter, BJeLR lethal, PrP 5UTR inh, Sa ugtP lethal, Mtb hypoxia inh, Mtb hypoxia inh growth, RN4220 kill
- O=C(O)/C=C/c1cn(-c2ccccc2)nc1-c1cccs1
→ 4622, -3, -24, 2, 15, 4, 5.3
- CC(=O)CN1C(=O)NC2(CCCc3ccccc32)C1=O (stereo not drawn)
→ 4086, 8, -25, 1, 5, 6, 1.6

Quoted from above, 11 compounds:
SMILES | Autofluor counter | BJeLR lethal | PrP 5UTR inh | Sa ugtP lethal | Mtb hypoxia inh | Mtb hypoxia inh growth | RN4220 kill
O=C1NC(=O)C2(C=C(c3ccccc3)C(O)(c3ccccc3)C2)N1 (stereo not drawn) | 3864 | . | 1 | 3 | 9 | 8 | 1.4
Cc1onc(-c2ccccc2Cl)c1C(=O)Nc1ccccc1C(=O)NC(C)C | 4218 | 4 | -16 | -4 | 9 | 6 | 3.7
Cc1cccc(NS(=O)(=O)c2ccc(-c3cnc(C4CC4)o3)cc2)c1 | 5167 | -1 | 20 | -15 | 4 | 10 | 18
COc1cccc(CN2CCN(C(=O)CCc3nnc(C4CCCCC4)o3)CC2=O)c1 | 5962 | 5 | -25 | 4 | 11 | 2 | 5.5
Cc1ccc(S(=O)(=O)Cc2ccc([N+](=O)[O-])cc2)cc1 | 3645 | -4 | -15 | 6 | 13 | 11 | 7.9
CN(C)c1cc(-c2ccc(F)cc2)oc(=O)c1Cl | 4300 | -6 | -18 | 4 | 12 | 15 | 4.5
CCOc1cc(C2C3=C(CCCC3=O)Nc3nc(C(=O)OC)nn32)ccc1OC (stereo not drawn) | 22585* | -14 | -5 | 6 | -2 | -13 | -0.6
Cc1nn(C2CCS(=O)(=O)C2)c(Cl)c1/C=C/C(=O)OCC(=O)c1c[nH]c2ccccc12 (stereo not drawn) | 2032 | -2 | -7 | 7 | 14 | 4 | 0.5
CCN1C(=O)C2C(c3ccc(C)cc3)N3C(=O)N(c4ccc(OC)cc4)C(=O)[C@@]3(CC)C2C1=O (stereo partly drawn) | . | . | . | -1 | 4 | 2 | 2.5
Cc1ccc(C(=O)Nc2sc3c(c2C(=O)O)CCCC3)o1 | 5246 | -2 | -26 | -12 | 4 | 4 | 14
COc1cccc(/C=N/NC(=O)CC2C(=O)NN=C2C)c1OC (stereo not drawn) | 3409 | 5 | 5 | . | . | . | .

Next section
SMILES | Autofluor counter | BJeLR lethal | PrP 5UTR inh | Sa ugtP lethal | Mtb hypoxia inh | Mtb hypoxia inh growth | RN4220 kill
Cc1cc(C)[n+](Cc2ccccc2)cc1C(N)=O | 3996 | -5 | -21 | 8 | 4 | 11 | 1.3
Cc1ccc(NC(=O)c2cc(C)nn2-c2ccccc2)cc1 | 4435 | 7 | -6 | 8 | -2 | 3 | 0.4
Cc1[nH]n(-c2ccccc2)c(=O)c1N=Nc1ccccc1O | 4532 | 3 | 15 | 63 | 2 | -6 | -15
Cn1c(-c2ccc(F)cc2)cnc1SCC(=O)Nc1ccccc1 | 4429 | -4 | -6 | 14 | 8 | 8 | 9.7
COC(=O)c1ccc(CSc2nnc(NC(=O)C3CC(=O)N(Cc4ccc(C)cc4)C3)s2)cc1 (stereo not drawn) | 1955 | -8 | -16 | 0 | 4 | 4 | 9.1
COc1ccc(C(CC(=O)O)NC(=O)OC(C)(C)C)cc1 (stereo not drawn) | 3983 | -3 | -13 | 2 | 13 | 11 | 1.6
CCOc1ccccc1N(CC(=O)N1CCC(C)CC1)S(=O)(=O)c1ccc(C)cc1 | 5997 | 4 | -9 | -7 | -7 | 4 | -0.1
C=C(C)CNC(=O)c1ccc(OC2CCN(C(=O)COC)CC2)cc1 | 15593 | -10 | -18 | . | . | . | .
COc1cccc(C(=O)NCC(=O)OC(C)C(=O)NC23CC4CC(CC(C4)C2)C3)c1 (stereo not drawn) | 2762 | . | -5 | -3 | 12 | 8 | 1.0
CC1CCN(S(=O)(=O)c2ccc3c(c2)CCN3C(=O)C2CCC2)CC1 | ? | -16 | 4 | 2 | -17 | -4 | 2.7
Cc1cccc2cccnc12 | 4912 | . | -27 | 3 | 10 | 6 | 5.7
Cc1c(CCC(=O)NCCCCCC(=O)O)c(=O)oc2c(C)c3oc4c(c3cc12)CCCC4 | 4220 | -2 | -11 | 14 | 2 | -12 | 6.1
COc1ccc(NC(=O)NNC(=O)COc2ccc([N+](=O)[O-])c(C)c2)cc1OC | 5326 | -2 | -16 | 3 | 9 | 5 | 4.1
CCN1CCN(Cc2nc3cc(NC(=O)COc4ccc([N+](=O)[O-])cc4)ccc3n2C)CC1 | 5167 | 5 | -20 | 7 | 5 | 3 | 0.3
O=C1c2[nH]nc(-c3ccccc3O)c2C(c2ccc(F)cc2)N1Cc1ccco1 (stereo not drawn) | 5901 | -4 | -16 | -18 | -6 | 6 | 32
